ALR inh = human ALR oxidase inhibition via reduced H2O2; P55789; purified ALR, DTT oxidation, H2O2 HRP-luminol luminescence; inhibition, % (test concentration not listed); hit rate 3.8% among 290,000;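 active means mean and each replicate at 75% or more; inconclusive means only one of the two met; inactive means neither met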;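 further: stock transfer was 7.5 nL into about 7.5 µL; 0% = neutral wells and 100% = wells with inactivated enzyme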
Target sequence (P55789 whole entry, looked up): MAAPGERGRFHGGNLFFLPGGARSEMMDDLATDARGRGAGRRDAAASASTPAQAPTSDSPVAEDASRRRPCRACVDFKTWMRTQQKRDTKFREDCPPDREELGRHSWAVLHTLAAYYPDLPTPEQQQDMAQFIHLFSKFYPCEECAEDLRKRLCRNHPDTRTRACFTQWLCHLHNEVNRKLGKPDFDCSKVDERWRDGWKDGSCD
Ecoli rRNA inh = inhibitors of bacterial rRNA selective over humanized ribosomes; E. coli WT GFP vs humanized-ribosome RFP mutants, fluorescence, 24 h; active compounds read low; DMSO median 0, no signal -100; GFP signal change (wild-type ribosome), % (concentration not given with the values); hit rate 1.6% among 350,000; AID 720706;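 active means significant combined selectivity score with lowered wild-type GFP, culture density cut under 30%, mutant RFP and density less affected; inactive means any of these conditions unmet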; further: one replicate is shown; some compounds called inactive have numbers as strong as hits
AF4-AF9 inh = blocks AF4 peptide binding to human AF9; P42568; AlphaScreen, biotin-AF4 peptide binding to FLAG-AF9; inhibition, % at 10 µM; hit rate 0.47% among 350,000; AID 651704;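 active means every replicate reaching a set inhibition limit, whatever the replicate mean, cut at about 25% in these data; inconclusive means mean inhibition reaches that limit but some replicates miss it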;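 further: 0% = plate neutral control median and 100% = total signal loss; the record names both 10 and 1 µM as test concentration; the first replicate is given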
HNF4A DNA FP = change in binding of human HNF4 alpha to DNA; activity change, % at 10 µM; hit rate 0.3% among 360,000; P41235; AID 1224865; HNF4a-FITC DNA binding, fluorescence polarization, 1 h; in the data active means activity change above about 30%, passing the limit was not always enough;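 further: controls were the assay level and a saturating level of protein; the project sought stronger binding though the title names inhibitors; some compounds called inactive have numbers as strong as hits; positive values seem to mean higher polarization but the record does not say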
Target sequence (P41235 whole entry, looked up): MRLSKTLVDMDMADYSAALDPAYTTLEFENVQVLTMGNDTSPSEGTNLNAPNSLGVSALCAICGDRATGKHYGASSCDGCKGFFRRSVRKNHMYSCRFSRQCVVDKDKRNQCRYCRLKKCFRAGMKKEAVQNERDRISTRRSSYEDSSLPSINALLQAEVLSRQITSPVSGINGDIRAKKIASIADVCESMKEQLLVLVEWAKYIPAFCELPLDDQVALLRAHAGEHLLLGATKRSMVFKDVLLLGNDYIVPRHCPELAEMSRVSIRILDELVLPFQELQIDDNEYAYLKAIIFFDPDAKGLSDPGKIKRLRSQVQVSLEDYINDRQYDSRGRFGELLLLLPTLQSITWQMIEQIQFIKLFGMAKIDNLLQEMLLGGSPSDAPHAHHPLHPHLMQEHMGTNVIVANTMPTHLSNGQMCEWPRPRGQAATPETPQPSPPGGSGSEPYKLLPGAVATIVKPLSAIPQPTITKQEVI
Vif TR-FRET = HIV-1 Vif–A3G interaction blockers – biochemical, TR-FRET, GST-Vif 1-94, biotin-A3G peptide, dose response retest, primary screen (AID 1117319). TR-FRET GST-Vif / biotin-A3G peptide binding; higher % means a stronger effect; test concentration not given here; strong numbers were not always called active. inhibition, %; hits with a dose series show IC50 in µM. hit rate 0.57% among 260,000;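 active means above the screen mean plus three standard deviations and confirmed in dose response; inconclusive means results disagree or hit not tested in dose response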;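 further: Vif residues 1-94 fused to GST binding biotinylated APOBEC3G peptide 110-148; 0% = full assay without inhibitor and 100% = GST in place of GST-Vif; retest series ran down from 100 µM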
FGF22 binding = FGF22 (human) thermal shift binding. recombinant FGF22 thermal shift, SYPRO orange fluorescence; percent of sucrose octasulfate shift, DMSO zero. hit rate 1.5% among 340,000. Q9HCT0. calls only at 9.99 µM;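 active means melting point raised past a set limit in the mean and every replicate; inconclusive means no clear call; three in four hits are not shown here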
Target sequence (Q9HCT0 whole entry, looked up): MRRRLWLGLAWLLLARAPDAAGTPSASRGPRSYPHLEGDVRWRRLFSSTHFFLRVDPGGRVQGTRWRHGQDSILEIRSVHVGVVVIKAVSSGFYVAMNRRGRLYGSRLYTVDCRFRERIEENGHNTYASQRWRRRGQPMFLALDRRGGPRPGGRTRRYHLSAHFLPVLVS
E coli growth = inhibitors of Escherichia coli growth | OD600 absorbance (no concentration beside the values) | hit rate 0.21% among 330,000 | OD600, 23 h; active compounds read low;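 active means OD600 absorbance below the run mean of sample wells minus 3.6 SD, in any replicate, cut at about 0.56 in these data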;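 further: stock transfer was 300 nL into about 60 µL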
Ecoli rRNA inh OD600 = second read-out of Ecoli rRNA inh, no call of its own (marks repeat the call); OD600 change, %; measured here: OD600 growth;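 optical density of the mix in the first replicate; 0 = DMSO median and -100 = no signal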
Ecoli rRNA inh RFP = also measured in Ecoli rRNA inh; calls as there; RFP signal change, %; measured here: RFP humanized mutant strains;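 first replicate; 0 = DMSO median and -100 = no signal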
* = called active by the depositor; i = inactive; ? = inconclusive; / = not tested or not shown. Only part of the results is shown; rates above refer to the full screens.

SMILES	ALR inh	Ecoli rRNA inh	Ecoli rRNA inh OD600	Ecoli rRNA inh RFP	AF4-AF9 inh	HNF4A DNA FP	Vif TR-FRET	FGF22 binding	E coli growth
C=CCOc1cccc(C2C(C(=O)c3ccc(C)o3)=C(O)C(=O)N2CCN2CCOCC2)c1 (stereo not drawn)	/	1	4	-0.7	1.8	0.0	1%	i	/
COc1ccc(C(C)=O)cc1CSc1ccc(S(=O)(=O)N2CCOCC2)cn1	/	-18	-22	4.9	1.7	5.9	-9%	i	0.67
CC1(C(=O)Nc2ccc3c(c2)OCCO3)CCN1C(=O)c1ccccc1CCc1ccccc1 (stereo not drawn)	/	-4	-10	-3.8	-1.7	-0.1	/	i	/
CCOC(=O)c1c(C)nc2c(c(SC)nn2-c2ccccc2)c1N	-4	/	/	/	/	0.8	1%	/	0.75
O=C(N1CCCC1)C12CC3CC(C1)CC(C(=O)N1CCCC1)(C3)C2	-17	7	-1	-2.3	0.2	0.1	-9%	/	0.7
O=c1c([N+](=O)[O-])c(N2CCOCC2)c2ccccc2n1-c1ccccc1	-17	9	7	-3.2	-1.1	0.6	5%	i	0.76
O=C(CN1C(=O)NC2(CCCCCC2)C1=O)NC1CCCCCCC1	-1	11	6	0.2	-1.0	3.4	6%	i	0.64
Clc1ccccc1-c1ccc2nccn2c1	/	0	-4	-3.1	0.6	0.6	/	i	/
C[C@H](CO)NC(=O)c1nc[nH]c1C(=O)N[C@@H](C)c1ccccc1	/	0	1	-1.4	-1.2	-0.8	/	i	/
O=C(NNC1=Nc2ccccc2SC1)c1ccccc1F	5	2	-2	-2.3	0.3	1.8	5%	i	0.61
Cc1noc(C)c1CSCC(=O)Nc1nc2ccc(F)cc2s1	/	-13	-18	0.7	0.3	4.5	0%	i	0.69
Fc1ccc(-n2c(-c3ccc4ccccc4n3)n[nH]c2=S)cc1	10	-10	-13	5.9	-7.0	3.8	5%	i	/
O=C(CCCN1C(=O)c2ccccc2C1=O)NCCC1=CCCCC1	-7	3	-2	-5.4	-3.0	-3.6	5%	i	0.65
CCOC(=O)C1CCCNC1=O (stereo not drawn)	-1	4	10	0.9	/	-0.4	/	i	0.71
CCn1nnnc1SCC(=O)N1CCN(Cc2ccc3c(c2)OCCO3)CC1	0	5	8	-0.5	0.4	2.0	/	i	0.69
Cc1cccc(C(=O)Oc2ccccc2/C=N/NC(=O)c2ccc(NC(=O)C(C)(C)C)cc2)c1	/	6	5	8.2	6.7	0.4	/	i	/
COc1cc(OC)cc(C(=O)Nc2ccc(C(=O)c3ccncc3)cc2)c1	-1	-12	-28	7.2	-2.2	-1.8	/	i	0.67
COc1ccccc1OCc1nc(C#N)c(NCCCn2ccnc2)o1	1	-3	-7	-0.3	3.8	0.4	7%	i	0.66
CCc1cc(OCCCCNCc2ccccc2)ccc1Cl	-5	/	/	/	/	-2.5	15%	/	0.57
C/C(=N\NC(=O)c1cccc2ccccc12)c1ccccn1	/	-56	-56	-12	-2.1	4.0	/	i	/
Cc1ccc(N2C(N)=C(C#N)C(c3cc(CN4CCOCC4)cs3)C3=C2CC(C)(C)CC3=O)cc1 (stereo not drawn)	8	4	8	1.5	-1.4	4.5	-6%	i	0.69
O=C(NCC1CC1)c1ccc2c(c1)S(=O)(=O)c1cc(Cl)ccc1C2=O	-1	-19	-25	-6.0	0.7	1.8	/	i	0.63
Cc1ccc(C(=O)NCC(=O)OCC(=O)c2ccc(Br)s2)cc1	-4	2	9	2.1	-5.6	0.5	-117%	i	0.69
COc1ccc(NC(=O)Cn2c(CCC(=O)O)ccc2-c2ccccc2)cc1	18	1	7	-1.2	-0.7	4.6	/	i	0.71
CC(=O)c1ccc(OCC(=O)OCC(=O)NCc2ccco2)cc1	3	8	7	-3.2	-0.7	-3.1	/	i	0.71
CN1CCc2c(sc(NC(=O)C3CCCN3S(=O)(=O)c3ccc(Cl)s3)c2C(N)=O)C1 (stereo not drawn)	-7	3	5	-1.1	8.0	-6.3	-7%	i	0.63
Cn1c2c(c(=O)n(C)c1=O)CN(CCc1ccccc1)CN2	/	/	/	/	/	1.0	0%	/	0.69
O=C(NCC[C@H]1CC[C@@H](NC(=O)C2CCC2)[C@@H](CO)O1)c1ccc(F)cc1	/	0	-8	0.3	-2.6	/	/	i	/
Cc1ccc(S(=O)(=O)Nc2ccc3c(c2)CC(=O)N([C@@H](C)CO)C[C@H](C)[C@H](CN(C)C(=O)Nc2ccc(F)cc2)O3)cc1	/	1	-2	0.4	-1.8	/	/	i	/
COc1cc(/C=C/C(=O)N2CCC=CC2=O)cc(OC)c1OC	7	/	/	/	-2.4	2.8	/	i	/

The list goes on; the last 2 above are carried over.
SMILES	ALR inh	Ecoli rRNA inh	Ecoli rRNA inh OD600	Ecoli rRNA inh RFP	AF4-AF9 inh	HNF4A DNA FP	Vif TR-FRET	FGF22 binding	E coli growth
Cc1ccc(S(=O)(=O)Nc2ccc3c(c2)CC(=O)N([C@@H](C)CO)C[C@H](C)[C@H](CN(C)C(=O)Nc2ccc(F)cc2)O3)cc1	/	1	-2	0.4	-1.8	/	/	i	/
COc1cc(/C=C/C(=O)N2CCC=CC2=O)cc(OC)c1OC	7	/	/	/	-2.4	2.8	/	i	/
COc1cc(OC)cc(C(=O)NC(=S)N2CCCCC2c2cccnc2)c1 (stereo not drawn)	/	-3	-3	-0.3	-5.4	0.1	/	i	0.72
O=C(Nc1ccc(OC(F)(F)F)cc1)C1CCCCN1S(=O)(=O)c1ccccc1 (stereo not drawn)	/	-4	-31	7.2	-3.4	-0.1	-4%	i	0.67
CC(C)Oc1ccc(C(=O)Nc2ccc(N(C)C)cc2)cc1	61	-2	11	11	3.7	-1.7	12%	i	0.71
COc1cccc(OC)c1C(=O)Nc1cccc(-c2nc3ccccc3[nH]2)c1	2	-7	9	1.0	-5.4	0.8	-2%	i	0.73
Cc1cccc(-n2c(N)cc(=O)[nH]c2=S)c1C	-1	/	/	/	/	3.0	4%	/	0.74
Clc1ccc2c(c1)C(N1CCNCC1)=Nc1ccccc1O2	-8	/	/	/	-1.9	0.5	31%	i	0.7
CO[C@H]1CN(C)C(=O)c2cc(NC(C)=O)ccc2OC[C@H](C)N(C(=O)c2cnccn2)C[C@@H]1C	/	2	4	-0.9	-3.3	/	/	i	/
C[C@H]1CN([C@@H](C)CO)C(=O)Cc2cc(NC(=O)Cc3cn(C)c4ccccc34)ccc2O[C@H]1CN(C)C(=O)Nc1cccc2ccccc12	/	-3	7	0.9	0.4	/	/	i	/
CCOC(=O)N1CCN(c2cc(N3CCOCC3)c(F)cc2[N+](=O)[O-])CC1	/	-2	3	5.3	4.7	-0.5	-1%	i	0.7
COc1ccccc1-c1nnc(NC(=O)CCS(=O)(=O)c2ccc(F)cc2)o1	/	/	/	/	-1.5	-3.0	-5%	i	/
CCOc1cc(C2c3c(oc4ccccc4c3=O)C(=O)N2c2nccs2)ccc1O (stereo not drawn)	-4	11	9	-2.1	0.2	2.0	-7%	i	/
Cc1ccccc1N(C(=O)c1csnn1)C(C(=O)NC1CCCCC1)c1ccncc1 (stereo not drawn)	0	6	11	-0.2	0.6	0.2	/	i	0.64
Cc1ccc(OCc2cc(C(=O)NCCc3cccnc3)no2)cc1C	-12	-14	-22	2.6	-10	1.4	0%	i	0.66
Cn1cnc2c(NCc3ccco3)ncnc21	-22	2	16	3.4	-1.7	3.1	3%	i	0.75
Cc1onc(C(=O)NN)c1-c1csc(COc2ccc(Cl)cc2)n1	0	/	/	/	/	1.0	1%	/	0.67
O=C(O)c1cccc(Nc2ccc([N+](=O)[O-])c3nonc23)c1	-53	2	-1	2.8	-12	18	/	i	0.69
COc1cccc2c1C(=O)O/C2=C/c1ccc2c(c1)OCO2	-10	/	/	/	1.2	-1.9	5%	/	/
C[C@@H]1CCCCO[C@@H](CN(C)Cc2ccc(C(F)(F)F)cc2)[C@@H](C)CN([C@H](C)CO)C(=O)c2cc(NC(=O)c3ccncc3)ccc2O1	/	6	13	-3.9	0.9	/	/	i	/
CC(C)OC(=O)CC(=O)CSc1nc2c(cc1C#N)CCC2	-2	/	/	/	/	2.6	-2%	/	0.78
Cc1cc(NC(c2cccnc2)c2c(C)[nH]c3ccccc23)no1 (stereo not drawn)	17	/	/	/	/	-8.6	5%	/	0.78
COc1cc(/C=C/c2nc3ccccc3c(=O)[nH]2)ccc1O	/	-6	-2	-2.4	0.4	6.3	/	i	/
CCNC(=S)NNC(=O)c1c(Cl)c(C)nn1C	73	/	/	/	/	-2.2	3%	/	0.7
CCCC(=O)N=c1sc2c(OC)ccc(OC)c2n1C	-5	12	6	-0.3	-1.1	3.0	?	i	0.73
C/C(=N/N=C/c1ccccc1O)c1ccccc1O	20	17	13	-1.7	0.7	4.2	-15%	i	/
COc1cc(NC(=O)COC(=O)Cn2cnc3c2c(=O)n(C)c(=O)n3C)cc(OC)c1	/	12	6	-0.5	1.6	3.3	/	i	0.69
S=c1[nH]nc(CSCCOc2ccccc2)o1	38	-18	-10	1.6	-1.3	0.7	-5%	i	0.71
CCOC(=O)N1CCN(C(c2ccc(C(C)C)cc2)c2sc3nc(C)nn3c2O)CC1 (stereo not drawn)	1	-1	-7	4.7	-4.0	-0.8	-4%	i	0.77
CN(C)C(=O)/C(=C/c1cn(-c2ccccc2)nc1-c1cccc([N+](=O)[O-])c1)NC(=O)c1ccccc1	-3	/	/	/	/	-3.2	18%	/	/
O=C(O)CC12CC3CC(C1)CC(n1ncc(NCc4ccc(F)cc4Cl)c(Cl)c1=O)(C3)C2	/	-9	-21	-5.9	-0.1	3.4	3%	i	0.72
CCCCOc1ccc(C(=O)N=c2sccn2C)cc1OC	18	-36	-36	-11	1.7	7.2	/	i	0.72

Two records drawn at random from those above, as already listed:
SMILES	ALR inh	Ecoli rRNA inh	Ecoli rRNA inh OD600	Ecoli rRNA inh RFP	AF4-AF9 inh	HNF4A DNA FP	Vif TR-FRET	FGF22 binding	E coli growth
O=C(NCC[C@H]1CC[C@@H](NC(=O)C2CCC2)[C@@H](CO)O1)c1ccc(F)cc1	/	0	-8	0.3	-2.6	/	/	i	/
O=C(O)CC12CC3CC(C1)CC(n1ncc(NCc4ccc(F)cc4Cl)c(Cl)c1=O)(C3)C2	/	-9	-21	-5.9	-0.1	3.4	3%	i	0.72

Bioassay records (PubChem)
